From PubChem BioAssay
TRPML1 ag = qHTS for Agonists of the Human Mucolipin Transient Receptor Potential 1 (TRPML1); Mucolipin-1 (Homo sapiens), Q9GZU1; TRPML1-expressing cells, Ca2+ dye fluorescence, FDSS; host cell line not named in the record; reference of the full effect not given here; activation, % (test concentration not listed); 410,000 compounds, 0.12% hits; AID 624414, 2012; in the data active = activation above about 50%; inconclusive = about 30% to 50%; inactive = below about 30%; also: 0% is about no effect; the text of the record puts the active cut at 80%
Target sequence (Q9GZU1 whole entry, looked up): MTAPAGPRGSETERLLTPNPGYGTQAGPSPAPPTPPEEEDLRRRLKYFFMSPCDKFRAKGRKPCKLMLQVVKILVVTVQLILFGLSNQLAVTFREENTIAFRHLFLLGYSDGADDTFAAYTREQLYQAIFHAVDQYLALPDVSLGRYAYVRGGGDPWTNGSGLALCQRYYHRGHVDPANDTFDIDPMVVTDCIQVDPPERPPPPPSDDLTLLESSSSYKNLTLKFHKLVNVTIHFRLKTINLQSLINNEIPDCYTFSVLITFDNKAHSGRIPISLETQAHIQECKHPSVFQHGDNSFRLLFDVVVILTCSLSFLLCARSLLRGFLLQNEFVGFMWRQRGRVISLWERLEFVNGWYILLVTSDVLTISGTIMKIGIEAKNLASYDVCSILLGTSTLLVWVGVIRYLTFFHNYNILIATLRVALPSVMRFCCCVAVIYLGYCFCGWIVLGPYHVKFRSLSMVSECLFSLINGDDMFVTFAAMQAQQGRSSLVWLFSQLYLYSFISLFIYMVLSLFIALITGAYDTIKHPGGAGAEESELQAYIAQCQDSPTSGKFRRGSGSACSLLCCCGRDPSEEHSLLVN
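Tet-induced TRPML1-DL cells, 1,500 per well, cultured overnight, were loaded with a no-wash Ca2+ dye for 45–90 min. Calcium fluorescence was recorded on the FDSS for 110 s after compound addition, before the EC80 agonist (4 uM 54-4) was added.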
TRPML1 blocker = qHTS for Inhibitors of the Human Mucolipin Transient Receptor Potential 1 (TRPML1). activity change, negative = inhibition, % (concentration not given with the values). 390,000 compounds, 0.02% hits. TRPML1-inducible cells, Ca2+ dye fluorescence, FDSS; active compounds read low; inhibition of EC80 agonist-evoked calcium signal. Mucolipin-1 (Homo sapiens), Q9GZU1; in the data active means activity change below about -50%; inconclusive means about -30% to -50%; inactive means above about -30%;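 also: stimulus is agonist 54-4 at its EC80 concentration; % is scaled to controls: 0 for no effect and ±100 for the full control effect; the text of the record puts the active cut at -80%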
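Calcium fluorescence in TRPML1-DL cells induced overnight with Tet: a 110 s read after compound pin addition, then a 110 s antagonist read after challenge with 54-4 at 4 uM final (EC80).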
CtBP-E1A blk = qHTS Assay for Inhibitors of the CtBP/E1A Interaction; 340,000 compounds, 0.49% hits; activity change, % (concentration not given with the values); AlphaScreen GST-E1A/His-CtBP binding, 1536-well; active compounds read low; control for the full effect not named in the record; AID 651724, 2012; in the data active means activity change below about -65%; inconclusive means about -30% to -65%; inactive means above about -30%; also: % is scaled to controls: 0 for no effect and ±100 for the full control effect
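Steps: dispense buffer (Tris pH 8.0, NaCl 300 mM, TCEP 1 mM, BSA, Tween 20); add 5X protein mix (GST-E1A, His-CtBP, 125 nM each); pin 23 nL compound; 2 h at 37 °C, dark; add 5X beads (50 ug/mL); 1 h; read.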
D2 ag = Beta-Arrestin HTS for Positive Allosteric Modulators of the Human D2 Dopamine Receptor: Agonists. 360,000 compounds, 0.084% hits. D(2) dopamine receptor (Homo sapiens), P14416. DiscoveRx PathHunter D2 beta-arrestin, luminescence, 90 min; 100% = 57 uM dopamine signal. activation, % (concentration not given with the values). AID 624465, 2012; in the data active = activation above about 40%; inconclusive = about 15% to 40%; inactive = below about 15%; also: the text of the record calls up to 30% inactive
Target sequence (P14416 whole entry, looked up): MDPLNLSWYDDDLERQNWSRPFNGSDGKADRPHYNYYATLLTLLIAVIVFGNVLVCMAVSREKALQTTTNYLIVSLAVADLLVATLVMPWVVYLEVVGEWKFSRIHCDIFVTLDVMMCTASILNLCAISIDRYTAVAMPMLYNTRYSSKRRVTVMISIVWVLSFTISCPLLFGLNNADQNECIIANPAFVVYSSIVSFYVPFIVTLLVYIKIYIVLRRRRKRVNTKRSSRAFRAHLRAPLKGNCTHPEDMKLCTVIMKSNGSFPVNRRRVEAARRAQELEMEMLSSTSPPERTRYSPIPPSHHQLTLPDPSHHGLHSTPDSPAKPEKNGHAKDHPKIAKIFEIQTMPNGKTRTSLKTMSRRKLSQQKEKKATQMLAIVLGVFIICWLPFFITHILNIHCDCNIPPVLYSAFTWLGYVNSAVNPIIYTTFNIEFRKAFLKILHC
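Agonist mode: compounds alone added to overnight-plated D2 PathHunter cells for 90 min at 37 C, with 57 uM final dopamine (EC100) defining full response. Beta-arrestin recruitment detected by chemiluminescent reagent, read after 1 h at ambient temperature.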
PINK1 expr mod = A Quantitative High throughput Screen to Identify Chemical Modulators of PINK1 Expression. PINK1 immunofluorescence, high-content cytometry, 24 h. Potency, µM (doses to about 76.6 µM), inactives show at the top dose activation (PINK1 increase), most hits filed as activators. 410,000 compounds, 0.2% hits; active = well fitted activation curve with a large enough effect; inconclusive = small, poorly fitted or top-dose-only effect; inactive = flat fitted curve, though single readings scatter; cell line not stated here;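 also: potency is read from the fitted curve at half-maximal effect; % of control where 0% means no effect; nearly all actives have a fitted effect of over 65% in size; a mitochondrial uncoupler was the plate control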
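A stable cell line was treated with compounds at 5 concentrations for 24 hours, with CCCP as control. PINK1 levels and mitochondrial localization were measured by immunofluorescence with mitochondrial, cell and nuclear markers after fixation, read by laser-scanning cytometry.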
Six1-Eya2 blk = qHTS Assay for Inhibitors of the Six1/Eya2 Interaction; AlphaScreen GST-Six1/His-Eya2 binding, biochemical; active compounds read low; control for the full effect not named in the record; activity change, % (concentration not given with the values); 360,000 compounds, 0.56% hits; in the data active = activity change below about -65%; inconclusive = about -30% to -65%; inactive = above about -30%; also: % is scaled to controls: 0 for no effect and ±100 for the full control effect
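Six1/Eya2 binding was read as AlphaScreen signal after compounds were pinned into GST-Six1 plus His-tagged Eya2 (5X stock 250/500 nM) in pH 8.0 Tris/NaCl/TCEP buffer, beads added, then incubated 1 h, 37 C, dark.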
* marks the source's active call; other numbers are inactive results; ? = inconclusive; · = not tested or not shown; [ ] = remark or other dose.

SMILES | TRPML1 ag | TRPML1 blocker | CtBP-E1A blk | D2 ag | PINK1 expr mod | Six1-Eya2 blk
O=C(Nc1ccc2c(c1)OCO2)c1cc(C2CCCN(C(=O)CCCc3ccccc3)C2)on1 (centres undefined) | 0.8 | · | -5 | 11 | 4.2% | -4
COc1ccc(N(C(=O)CNC(=O)c2ccco2)C(C(=O)NCC2CCCO2)c2ccccc2)cc1OC (centres undefined) | 1.1 | 16 | -24 | -0.6 | -2.4% | 0
CC1Cc2cc(S(=O)(=O)N3CCCCC3C)ccc2N1C(=O)C1CCC1 (centres undefined) | -0.1 | 18 | · | -1.8 | 0.5% | 1
CCC(=O)Nc1ccc(N2CCCCC2)c(C(=O)Nc2ccc(OC)cc2)c1 | 0.5 | 9 | -2 | -1.5 | -0.5% | -2
Cc1ccc(C(=O)COC(=O)CCC(=O)NC2CCCCC2)cc1[N+](=O)[O-] | -0.7 | 2 | -1 | -16 | 0.2% | 2
CC(=O)N/C(=C\c1ccccc1)C(=O)N1CCOCC1 | 0.7 | -9 | 5 | -3.1 | 1.2% | 7
Cc1nn(C)c(=O)n1-c1ccc(OCc2ccccc2)cc1 | -0.6 | 1 | 8 | -1.0 | -0.3%[38.3 µM] | -2
CC1Cc2cc(S(=O)(=O)N(C)c3ccc(Br)cc3)ccc2N1C(=O)C1CC1 (centres undefined) | 11 | 50 | · | · | 1.3% | ·
CCCN(CCC)CCCNC(=O)C1CCCN(S(=O)(=O)c2cccc3nsnc23)C1 (centres undefined) | -0.2 | 2 | · | · | 1.0% | ·
O=C(CC1C(=O)NCCN1Cc1cccc(C(F)(F)F)c1)NC1CCCCCC1 (centres undefined) | 0.0 | -4 | 2 | -4.5 | 2.6% | 0
CCc1nnc(NC(=O)Cc2sc(C)nc2-c2ccc(C)cc2)s1 | 2.0 | -11 | 4 | -2.6 | 5.0% | -20
CC(C)C(NC(=O)OC(C)(C)C)C(=O)NC(CCC(=O)OCc1ccccc1)C(N)=O (centres undefined) | -0.4 | -9 | 3 | -2.2 | -0.6% | 3
Cc1cc(=O)nc2c3ccccc3n(C(C)C(=O)Nc3cc(F)ccc3F)n12 (centres undefined) | 0.5 | -3 | · | -2.1 | -0.3% | -1
CCCNC(=O)c1ccccc1NC(=O)c1ccc(CSc2ccccc2)cc1 | 2.2 | -6 | 4 | 2.9 | 5.3% | 3
CCOc1ccc(NC(=O)C2CCN(C(=O)N3CCOc4ccccc43)CC2)cc1 | 0.2 | -4 | 3 | -4.7 | 3.5% | 0
O=C(COc1cccc(F)c1)NNC(=O)c1cccc(-n2cccc2)c1 | -1.3 | -6 | 1 | 0.4 | 13% | -9
COC(=O)c1ccc(NC(=O)N2CCOCC2)cc1 | -0.3 | 7 | 1 | -4.0 | 0.4% | -1
Cc1ccc(-n2c(SCC(=O)NCc3ccco3)nnc2-c2cccnc2)cc1 | -0.9 | 1 | -6 | -4.2 | -1.8% | -8
CCOc1ccc(NC(=O)CS(=O)(=O)c2cn(CC)c3ccccc23)cc1 | 1.2 | 6 | 20 | -1.4 | 1.2% | 19
O=C(COC(=O)CCc1nc2ccccc2c(=O)[nH]1)NCc1ccc(F)cc1 | 0.3 | -21 | 7 | -2.9 | 0.4% | 0
CCCN(C)C[C@@H]1Oc2ncc(Br)cc2C(=O)N([C@@H](C)CO)C[C@H]1C | -0.6 | -1 | 5 | -5.6 | 1.0% | 7
Nc1ncnc2c1ncn2[C@@H]1O[C@H](C(=O)NCc2ccc3c(c2)OCO3)[C@@H](O)[C@H]1O | -0.6 | -4 | 2 | -5.7 | 0.2% | -1
COc1cccc(Nc2nc(-c3ccc4c(c3)OCCO4)cs2)c1 | -0.6 | 20 | 0 | -1.3 | 1.4% | -17
O=C1N=c2ccccc2=C1c1c(O)n(-c2cccc(F)c2)[nH]c1=O | 0.4 | -13 | 0 | 4.6 | 1.9% | -7
O=S(=O)(NC1CCCCC1N1CCN(c2ccc(F)cc2)CC1)c1ccc(Cl)cc1 (centres undefined) | 0.0 | -3 | ? | -1.2 | -1.0% | -14
Cc1cc(=O)oc2cc(OCC(=O)N(C)C3CCS(=O)(=O)C3)c(Cl)cc12 (centres undefined) | 0.9 | 21 | 8 | ? | 2.4% | 4
CS(=O)(=O)Nc1ccc(-c2cccc3nccn23)cc1 | -0.2 | · | 5 | -2.1 | 0.8% | 7
CS(=O)(=O)N(CC(=O)Nc1ccc(Br)cc1)C1CCCCC1 | -0.3 | -2 | 0 | -5.6 | 0.3% | 13
CN(C)CCc1cc2c(c3c1ccc1ccccc13)OCO2 | 0.0 | 11 | · | 8.2 | -1.9% | ?
CCOC(=O)[C@@H]1CSCCS(=O)(=O)N1 | -0.4 | -15 | 11 | -1.3 | -0.7% | 4
COc1ccc(-c2nnc(SCC(=O)Nc3ccc(F)cc3)s2)cc1 | 0.1 | -6 | · | · | 0.1% | ·
Cc1ccc(-n2c(SCC(=O)OC(C)C)nnc2-c2cnccn2)cc1 | 0.8 | 21 | 4 | -3.5 | -1.1% | 4
COC(=O)c1cccc(Nc2nn3c(=O)c4cc5c(cc4nc3s2)OCO5)c1 | 0.0 | -14 | · | · | 3.7% | ·
COc1ccccc1/C=C/c1nc2ccc(OC(C)=O)cc2c(=O)o1 | 1.0 | -8 | 5 | 1.5 | 2.7% | 6
CCOc1ccc(CCNC(=O)CN2CCN(Cc3ccc(F)cc3)C2=O)cc1OCC | -0.3 | -11 | 0 | -3.6 | -2.0% | 4
C=CCN(c1ccccc1)S(=O)(=O)c1cc(C(=O)NC2=NCCS2)ccc1Cl | 1.8 | 9 | · | -1.3 | 1.2% | 4
Cc1nc2ccc(S(=O)(=O)NC(C(=O)NCc3cccs3)C(C)C)cc2s1 (centres undefined) | -0.2 | -8 | -14 | -2.6 | -0.8% | -24
CCOC(=O)N1CCC(NS(=O)(=O)c2cc(Br)cc3c2N(C(=O)CC)CC3)CC1 | 0.3 | 1 | -19 | -4.3 | 0.5% | -20
COc1cc(NC(=O)c2ccc(CNc3c(N4CCOCC4)c(=O)c3=O)cc2)cc(OC)c1 | -0.8 | 4 | -1 | -3.3 | 1.4% | -20
O=C1c2ccccc2S(=O)(=O)c2cc(C(=O)N(c3ccccn3)c3ccccn3)ccc21 | 64* | -6 | -4 | 6.0 | 3.0% | -10
COc1ccc(C(=O)NCc2nnc(SCC(=O)c3ccccc3)n2C)cc1 | -0.4 | -7 | 14 | -2.1 | -1.7% | -21
O=C(NCc1cccs1)C(=O)NCC1OCCCN1S(=O)(=O)c1ccc(F)cc1 (centres undefined) | -0.9 | -7 | -9 | -2.9 | -2.0% | 2
Cc1cc(C)n(-c2nc3ccccc3[nH]c2=O)n1 | -0.4 | 6 | 1 | -1.9 | -1.7% | 12
CCOC(=O)c1cccc(NS(=O)(=O)Cc2ccccc2)c1 | 0.8 | -14 | -1 | -1.1 | 0.1% | -1
CCCNC(=O)Nc1ccccc1SC | 0.7 | -9 | · | -4.8 | -1.0% | -3
O=C(CSc1nncn1-c1ccccc1)Nc1ccccc1 | -0.4 | 5 | 9 | 0.3 | -1.2% | -8
COc1ccc(C2CC(C(F)(F)F)n3ncc(C(=O)Nc4cccc(O)c4)c3N2)cc1OC (centres undefined) | -1.0 | 3 | ? | -2.2 | -0.3% | ?
O=C(CSc1nc2c(sc3ccccc32)c(=O)n1CCCN1CCOCC1)NCC1CCCO1 (centres undefined) | -0.2 | 9 | -5 | -0.4 | 0.3% | 7

Looked up above:
TRPML1 ag result of COc1ccc(C2CC(C(F)(F)F)n3ncc(C(=O)Nc4cccc(O)c4)c3N2)cc1OC (centres undefined) = -1.0
CtBP-E1A blk result of Cc1cc(C)n(-c2nc3ccccc3[nH]c2=O)n1 = 1

Next records follow.
SMILES | TRPML1 ag | TRPML1 blocker | CtBP-E1A blk | D2 ag | PINK1 expr mod | Six1-Eya2 blk
O=c1c2ccccc2nc2n1CCO2 | -0.6 | -4 | -10 | -4.4 | -0.3% | -19
CC(C)CCNC(=O)C1CCN(S(=O)(=O)c2cccc3nsnc23)CC1 | -0.7 | -11 | · | · | 0.8% | ·
Oc1ccc(Cl)cc1-c1cc(-c2cccc(Br)c2)n[nH]1 | 0.3 | 13 | 3 | 0.8 | ? | 0
O=C(O)CCN1C(=O)/C(=C/c2ccc(-c3nc4ccccc4s3)o2)SC1=S | 1.3 | 4 | -27 | -2.7 | 3.0% | ?
NS(=O)(=O)c1ccc(N/N=C/c2ccc(O)c(O)c2O)c([N+](=O)[O-])c1 | -0.8 | 3 | ? | -2.1 | -1.6% | ?
COC(=O)c1cc(=O)n(Cc2ccc(F)cc2)c(=Nc2ccccc2)s1 | 1.3 | -11 | · | -5.4 | 5.5% | -2
S=c1[nH]nc(-c2cc(-c3ccccc3)n[nH]2)n1/N=C/c1c(Cl)cccc1Cl | 2.7 | 4 | -9 | -7.0 | 2.5% | -17
CCNC(=O)C(=O)Nc1ccc(OC)c(Cl)c1 | -0.3 | 4 | 0 | -1.6 | 0.3% | 0
COc1ccc(Nc2oc(COc3ccc(OC)cc3)nc2C#N)cc1 | 2.1 | 24 | -7 | -0.5 | 3.2% | -21
CCCNC(=O)C1(C)CCN(Cc2ccc(Cl)c(Cl)c2)C1 (centres undefined) | -0.8 | · | 22 | -4.7 | 0.4% | 18
CC(=O)NC(Cc1cccc(F)c1)C(=O)NC1CCN(C(=O)c2cccc(C)c2)CC1 (centres undefined) | -0.3 | 3 | 11 | -3.1 | 0.5% | -3
CCn1c(SCC(=O)Nc2ccc3c(c2)OCCO3)nc2c(c1=O)SC(C)C2 (centres undefined) | -1.4 | 1 | 2 | -4.2 | 5.1% | -8
O=C(CC1NCCc2ccccc21)Nc1cccc(Cl)c1 (centres undefined) | 0.1 | 9 | 5 | -4.7 | 0.5% | -2

Complete entries, looked up by structure. Order of screens: TRPML1 ag, TRPML1 blocker, CtBP-E1A blk, D2 ag, PINK1 expr mod, Six1-Eya2 blk
C=CCN(c1ccccc1)S(=O)(=O)c1cc(C(=O)NC2=NCCS2)ccc1Cl is listed with 1.8, 9, ·, -1.3, 1.2%, 4
NS(=O)(=O)c1ccc(N/N=C/c2ccc(O)c(O)c2O)c([N+](=O)[O-])c1 is listed with -0.8, 3, ?, -2.1, -1.6%, ?
O=C1c2ccccc2S(=O)(=O)c2cc(C(=O)N(c3ccccn3)c3ccccn3)ccc21 is listed with 64*, -6, -4, 6.0, 3.0%, -10
Nc1ncnc2c1ncn2[C@@H]1O[C@H](C(=O)NCc2ccc3c(c2)OCO3)[C@@H](O)[C@H]1O is listed with -0.6, -4, 2, -5.7, 0.2%, -1
CCOC(=O)N1CCC(NS(=O)(=O)c2cc(Br)cc3c2N(C(=O)CC)CC3)CC1 is listed with 0.3, 1, -19, -4.3, 0.5%, -20
